RanGTP-Imp inh: inhibitors of RanGTP-importin-beta interaction, primary screen, biochemical, FRET, CFP-Ran, YFP-importin-beta, homogeneous; cell-free CFP-Ran/YFP-importin-beta FRET ratio; actives 1.1% (n = 300,000); inhibition, % (concentration not given with the values); AID 2216, 2009;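 active = most replicates above 15%; inconclusive = exactly half above 15%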;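 note: 0% = DMSO wells and 100% = Ran loaded with GDP instead of GTP; wells of about 40 µL received 100 nL stock; the first replicate is given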
HNF4A DNA FP: change in binding of human HNF4A to DNA, primary screen, biochemical, fluorescence polarization, FITC-DNA. activity change, % at 10 µM. 1 h. Hepatocyte nuclear factor 4-alpha (Homo sapiens), P41235. actives 0.3% (n = 360,000). AID 1224865, 2016; in the data active = activity change above about 30%, passing the limit was not always enough;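 note: controls were the assay level and a saturating level of protein; the project sought stronger binding though the title names inhibitors; some compounds called inactive have numbers as strong as hits; positive values seem to mean higher polarization but the record does not say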
Target sequence (P41235 whole entry, looked up): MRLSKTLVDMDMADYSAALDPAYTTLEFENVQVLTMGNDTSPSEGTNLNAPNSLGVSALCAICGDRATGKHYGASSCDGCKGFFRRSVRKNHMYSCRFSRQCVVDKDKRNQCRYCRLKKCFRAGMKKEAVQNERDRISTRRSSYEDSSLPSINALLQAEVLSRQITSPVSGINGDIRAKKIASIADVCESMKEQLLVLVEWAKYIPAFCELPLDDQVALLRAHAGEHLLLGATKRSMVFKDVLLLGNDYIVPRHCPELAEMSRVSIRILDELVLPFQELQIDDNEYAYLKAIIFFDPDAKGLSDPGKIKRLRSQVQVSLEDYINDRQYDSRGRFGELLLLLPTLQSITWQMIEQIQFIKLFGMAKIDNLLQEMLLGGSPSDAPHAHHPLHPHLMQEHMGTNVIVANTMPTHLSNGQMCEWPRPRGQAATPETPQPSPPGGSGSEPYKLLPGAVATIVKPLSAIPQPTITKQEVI
Vif A3G: inhibitors of Vif binding to APOBEC3G peptide, primary screen, biochemical, TR-FRET, GST-Vif 1-94, biotin-A3G peptide, dose response retest (AID 1117319) | inhibition, %; hits with a dose series show IC50 in µM | TR-FRET GST-Vif / biotin-A3G peptide binding; higher % means a stronger effect; test concentration not given here; strong numbers were not always called active | actives 0.57% (n = 260,000) | Virion infectivity factor (Human immunodeficiency virus type 1 group M subtype B (isolate …;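 active = above the screen mean plus three standard deviations and confirmed in dose response; inconclusive = results disagree or hit not tested in dose response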;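 note: Vif residues 1-94 fused to GST binding biotinylated APOBEC3G peptide 110-148; 0% = full assay without inhibitor and 100% = GST in place of GST-Vif; retest series ran down from 100 µM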
UCH37 inh: inhibitors of human UCH37 deubiquitinase, primary screen, biochemical, Ub-AMC cleavage, fluorescence; Ubiquitin carboxyl-terminal hydrolase isozyme L5 (Homo sapiens), Q9Y5K5; purified proteasome/UCH37; inhibition, % (test concentration not listed); actives 0.33% (n = 330,000);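 active = mean of two replicates above 20%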;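 note: 0% = compound-free wells with enzyme and 100% = wells lacking proteasome; stock transfer was 100 nL into about 20 µL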
Target sequence (Q9Y5K5 whole entry, looked up): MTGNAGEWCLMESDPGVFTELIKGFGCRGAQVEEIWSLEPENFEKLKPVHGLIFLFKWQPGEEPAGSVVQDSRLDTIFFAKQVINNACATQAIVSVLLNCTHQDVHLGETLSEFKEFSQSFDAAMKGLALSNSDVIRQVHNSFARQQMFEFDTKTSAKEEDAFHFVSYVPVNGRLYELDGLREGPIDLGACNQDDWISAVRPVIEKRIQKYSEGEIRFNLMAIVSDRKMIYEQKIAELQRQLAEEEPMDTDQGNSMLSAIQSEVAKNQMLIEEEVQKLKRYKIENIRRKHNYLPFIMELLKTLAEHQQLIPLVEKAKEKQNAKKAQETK
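Reagent: Ub-AMC substrate; assay system: Proteasome-associated human UCH37 deubiquitinase; controls: no-proteasome and no-compound wells; read-out: % inhibition of Ub-AMC cleavage fluorescence; timing: 30 min preincubation with enzyme, 25 min cleavage at room temperature; signal: AMC fluorescence from Ub-AMC cleavage, excitation 355 nm, emission 460 nm; buffer or medium: Tris-HCl pH 7.4 plus ovalbumin, ATP-MgCl2, DTT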
AF4-AF9 inh: inhibitors of AF4 peptide binding to AF9, primary screen, biochemical, AlphaScreen, biotin-AF4 peptide, FLAG-AF9, single point; actives 0.47% (n = 350,000); inhibition, % at 10 µM;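 active = every replicate reaching a set inhibition limit, whatever the replicate mean, cut at about 25% in these data; inconclusive = mean inhibition reaches that limit but some replicates miss it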;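 note: 0% = plate neutral control median and 100% = total signal loss; the record names both 10 and 1 µM as test concentration; the first replicate is given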
E coli growth: E. coli growth inhibition, primary screen, OD600; Escherichia coli growth, 23 h; active compounds read low; OD600 absorbance (test concentration not listed); actives 0.21% (n = 330,000);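 active = OD600 absorbance below the run mean of sample wells minus 3.6 SD, in any replicate, cut at about 0.56 in these data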;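 note: stock transfer was 300 nL into about 60 µL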
FGF22 binding: binders of human FGF22 protein, primary screen, FGF22 synaptogenesis inhibitor project, biophysical, thermal shift, single point. AID 651658, 2012. actives 1.5% (n = 340,000). calls only at 9.99 µM. Fibroblast growth factor 22 (Homo sapiens), Q9HCT0. recombinant FGF22 thermal shift, SYPRO orange fluorescence; percent of sucrose octasulfate shift, DMSO zero;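 active = melting point raised past a set limit in the mean and every replicate; inconclusive = no clear call; three in four hits are not shown here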
Target sequence (Q9HCT0 whole entry, looked up): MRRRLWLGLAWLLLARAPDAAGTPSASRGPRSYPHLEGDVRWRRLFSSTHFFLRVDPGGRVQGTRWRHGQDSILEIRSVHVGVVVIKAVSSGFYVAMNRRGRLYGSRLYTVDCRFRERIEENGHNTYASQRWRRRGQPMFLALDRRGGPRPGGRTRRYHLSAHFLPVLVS
Numbers without * were called inactive; i = inactive; ? = inconclusive; · = no result given.

SMILES | RanGTP-Imp inh | HNF4A DNA FP | Vif A3G | UCH37 inh | AF4-AF9 inh | E coli growth | FGF22 binding
CCOC(=O)N1CCC(N2Cc3cccc(C(=O)NCC4CCN(CC(C)C)C4)c3C2=O)CC1 (stereo not given) | · | 2.5 | -4% | 3.3 | -3.0 | 0.67 | i
COc1cc(NC(=O)c2cc3c(Cl)nc4ccccc4c3s2)cc(OC)c1OC | 0.0 | 2.1 | 5% | 0.1 | · | · | ·
CCN(CC)CC(O)CN1c2ccccc2Sc2ccccc21 (stereo not given) | 4.4 | 0.8 | 2% | 1.2 | ? | 0.67 | i
Cc1cc(Cl)ccc1NNC(=O)c1snnc1C | -3.9 | 0.0 | -3% | 3.5 | 4.6 | 0.56 | ·
Cc1nc2ccc(C(C(F)(F)F)(C(F)(F)F)C(F)(F)F)cc2[nH]1 | 5.8 | 2.8 | 5% | 5.2 | · | 0.69 | ·
COc1cc(/C=C/c2nc(-c3ccccc3O)n[nH]2)cc(OC)c1OC | 3.0 | -0.8 | -1% | -2.1 | · | 0.63 | ·
CN(CC(=O)NCc1ccc(Cl)cc1)S(=O)(=O)c1cccc2cccnc12 | -0.2 | -2.4 | -4% | 4.2 | 9.0 | 0.76 | i
CC[C@H](C)[C@@H](CO)NC(=O)[C@H]1O[C@@H](n2ccc(=O)[nH]c2=O)[C@H](O)[C@@H]1O | · | 5.4 | · | · | -4.8 | · | i
CCOc1ccc(Br)cc1S(=O)(=O)Nc1ccc(S(=O)(=O)Nc2cc(C)on2)cc1 | · | 0.7 | -3% | 3.6 | -1.9 | 0.69 | i
COC(=O)C(Cc1ccccc1)NS(=O)(=O)c1ccc(F)cc1Br (stereo not given) | ? | 1.1 | 4% | 2.1 | 0.8 | 0.66 | i
CCOC(=O)c1csc(N/N=C2\CCc3ccccc32)n1 | -3.7 | -2.6 | -2% | · | 5.2 | · | i
CN(C)Cc1c(C(=O)N/N=C/c2ccc(OCc3c(F)cccc3Cl)cc2)nnn1-c1nonc1N | 5.1 | 5.6 | · | · | 0.5 | · | i
CCCc1cc(=O)n2[nH]c(-c3ccc(Cl)cc3)cc2n1 | 1.0 | -0.9 | · | -7.6 | 0.1 | 0.67 | i
O=S(=O)(NCCC1=CCCCC1)c1cccc(Br)c1 | ? | 2.2 | 6% | 5.8 | -2.4 | 0.68 | i
CCOC(=O)c1[nH]c2ccccc2c1CCCN1C(=O)c2ccccc2C1=O | -3.4 | 1.4 | 1% | 4.2 | · | 0.74 | ·
O=C(NCc1ccccc1Cl)NC(=O)c1ccccc1 | 0.6 | 1.9 | · | 5.2 | -8.7 | 0.72 | i
C[C@H](NC(=O)c1ncn2c1C(=O)NC[C@H]2C)c1ccccc1 | · | -0.5 | · | · | 0.3 | · | i
Cc1ccc(C(=O)Nc2ccccc2)cc1S(=O)(=O)N1CCN(C)CC1 | -3.0 | -1.6 | · | 2.9 | 0.7 | 0.63 | i
Cc1cc(C)nc(NC(=S)Nc2cccc(Cl)c2Cl)c1 | -1.4 | -3.0 | -4% | -0.7 | -3.3 | 0.73 | i
Cc1noc(C)c1C(=O)Nc1cccc(S(=O)(=O)N2CCOCC2)c1 | · | 1.0 | 9% | 1.9 | -2.8 | 0.68 | i
Cc1ccc(NC(=O)c2ccccc2F)nc1 | -4.3 | 2.9 | 3% | -7.5 | · | 0.63 | ·
O=C(NC1CCN(Cc2ccccc2Cl)CC1)c1ccccc1 | -1.1 | -0.7 | -3% | 2.4 | -3.8 | 0.6 | i
N#C/C(=C\c1ccc(Cl)cc1)c1nc(-c2ccco2)cs1 | -2.9 | -1.8 | 5% | 3.4 | 3.9 | 0.71 | i
COn1c(=S)[nH]c2ccccc2c1=O | · | 1.4 | ? | 0.9 | · | 0.64 | ·
Cc1ccc2c(CSc3nnnn3C)cc(=O)oc2c1 | 8.7 | -4.5 | -4% | 4.9 | -0.2 | 0.67 | i
CCCCCn1ccc(=N)cc1 | 10 | -0.1 | 3% | 0.7 | · | 0.7 | ·
CC(Oc1ccc(Cl)cc1Cl)c1ccnc(N)n1 (stereo not given) | -0.1 | -1.2 | 12% | 2.4 | -14 | 0.68 | i
Cc1ccc(Cn2ccc(NC(=O)c3noc4c3CCc3ccccc3-4)n2)cc1 | 33* | -3.3 | -6% | -0.2 | · | 0.74 | ·
C=CCn1c(=O)c2ccccc2n2c(=S)[nH]nc12 | 0.9 | 3.5 | -5% | 4.9 | -2.6 | 0.67 | i
O=C(NCc1ccccn1)C1CCN(C2CCN(Cc3cccc(F)c3)CC2)CC1 | · | 4.0 | · | · | 5.5 | · | i
COC(=O)CSc1ccc2nnc(-c3ccc(F)cc3)n2n1 | 4.3 | -0.1 | 1% | -47 | 4.5 | 0.66 | i
NC(=O)COC(=O)c1ccc2c(c1)S(=O)(=O)N=C1CCCCCN12 | 1.8 | -2.2 | -3% | 1.8 | -26 | 0.63 | i
Cc1ccc(C(=O)N2c3ccccc3Sc3ccccc32)cc1 | · | -3.8 | · | · | -1.7 | · | i
Cn1nc(C(=O)OCc2ccccc2F)c2ccccc2c1=O | 3.1 | 0.2 | · | 0.2 | 2.9 | 0.73 | i
O=C(COC(=O)c1ccc([N+](=O)[O-])o1)NC1CCCC1 | · | 2.4 | -6% | 32* | -4.0 | 0.61 | i
CCOC(=O)C1(Cc2ccc(OC)cc2)CCN(C(=O)CCn2ccc(C)n2)CC1 | -1.7 | -2.6 | 3% | 0.3 | -4.3 | 0.69 | i
COc1cc(CNCc2cccs2)cc(Br)c1OC | 1.3 | -0.8 | -3% | 5.8 | · | 0.68 | ·
COc1ccc(C(=O)N2CCC(C(=O)Nc3ccccc3OC)CC2)cc1 | 6.4 | -3.3 | 1% | 5.8 | · | 0.69 | ·
CC(=O)C(N=Nc1ccccc1)(Sc1nnc(-c2ccccc2)n1-c1ccccc1)C(=O)Nc1ccccc1 (stereo not given) | 3.6 | 0.7 | 10% | -0.4 | · | 0.71 | ·
COc1cc(CN(C(=S)NCC(=O)N2CCCC2)C2CCCC2)cc(OC)c1OC | 4.2 | 0.6 | 2% | 1.5 | 1.3 | 0.71 | i
CCOc1ccc(S(=O)(=O)Nc2ccccc2C(=O)N(C)C2CCN(C)CC2)cc1 | · | 3.8 | -4% | 1.9 | 1.8 | 0.68 | i
CCOC(=O)N1CCN(C(=O)c2cc(COc3c(F)cccc3F)on2)CC1 | 3.6 | 1.9 | · | 1.8 | 0.0 | 0.74 | i
COCCCNC(=O)Cc1ccccc1OC | -0.4 | -0.3 | 18% | 0.4 | · | 0.73 | ·
CCOC(=O)c1[nH]c2cc(OC)c(OC)cc2c1NC(=O)c1nonc1C | -1.4 | -0.5 | -11% | 4.0 | · | 0.71 | ·
COC(=O)c1ccc(NC(=O)CSc2nnc(-c3cccnc3)o2)cc1 | 4.6 | -0.1 | -2% | 4.1 | -5.6 | 0.71 | i

Full records, quoted from the list. Screens in order: RanGTP-Imp inh, HNF4A DNA FP, Vif A3G, UCH37 inh, AF4-AF9 inh, E coli growth, FGF22 binding
`CCOC(=O)C1(Cc2ccc(OC)cc2)CCN(C(=O)CCn2ccc(C)n2)CC1` across the screens: -1.7, -2.6, 3%, 0.3, -4.3, 0.69, i
`CC(=O)C(N=Nc1ccccc1)(Sc1nnc(-c2ccccc2)n1-c1ccccc1)C(=O)Nc1ccccc1` (stereo not given) across the screens: 3.6, 0.7, 10%, -0.4, ·, 0.71, ·
`Cn1nc(C(=O)OCc2ccccc2F)c2ccccc2c1=O` across the screens: 3.1, 0.2, ·, 0.2, 2.9, 0.73, i
`CCOC(=O)c1[nH]c2cc(OC)c(OC)cc2c1NC(=O)c1nonc1C` across the screens: -1.4, -0.5, -11%, 4.0, ·, 0.71, ·

Additional entries follow:
SMILES | RanGTP-Imp inh | HNF4A DNA FP | Vif A3G | UCH37 inh | AF4-AF9 inh | E coli growth | FGF22 binding
COc1ccc(NS(=O)(=O)c2cccc(NC(=O)COc3ccccc3[N+](=O)[O-])c2)cc1 | · | 1.3 | -15% | 2.3 | -0.3 | 0.66 | i
COCCn1c(-c2ccc(Cl)cc2)cnc1SCC(=O)NCCc1ccc(OC)c(OC)c1 | 4.6 | 3.1 | · | 3.0 | 15 | 0.68 | i
C=CCn1c(SCC(=O)c2ccc(Br)cc2)nnc1C(CC(C)C)NC(=O)c1cccs1 (stereo not given) | ? | -1.6 | 4% | 3.0 | · | 0.71 | ·
O=c1cc(CSc2nnnn2-c2ccc(O)cc2)nc2sccn12 | -5.8 | 5.4 | · | 3.8 | -1.9 | 0.71 | i
CCOP(=O)(OCC)C(NC(=O)c1ccc(OC)cc1)c1ccccc1 (stereo not given) | 3.9 | 0.8 | 4% | -2.0 | 1.0 | 0.68 | i
CC1(C)O[C@@H]2[C@H](O1)[C@@H](COS(=O)(=O)O)O[C@H]2n1cc(Br)c(=O)[nH]c1=O | · | 1.1 | · | 2.7 | 0.7 | · | i
CCc1ccc(NC(=O)C(=O)NCCN2CCN(S(C)(=O)=O)CC2)cc1 | -2.1 | -2.7 | 14% | 0.4 | -7.1 | 0.69 | i
COc1ccc(-c2nnc(SCC(=O)c3[nH]c(C)c(C(C)=O)c3C)o2)cc1 | · | 4.7 | 1% | 1.5 | · | 0.76 | ·
CC1CCCC(C)N1CCCNC(=O)Cn1ncc2c([nH]c3ccccc32)c1=O (stereo not given) | 0.9 | -4.2 | · | -0.8 | -1.0 | 0.68 | i
O=C(COc1ccc(Cl)cc1)NCc1n[nH]c(=O)c2ccccc12 | -0.9 | -1.9 | -8% | 0.6 | -1.2 | 0.67 | i
CCc1ccc(/C=N/NC(=O)c2nnn(-c3nonc3N)c2CN2CCc3ccccc32)cc1 | -1.3 | -0.5 | · | · | 4.0 | · | i
COc1cc(C(=O)Nc2ccc(N(C)C)cc2)cc(OC)c1OC | 2.6 | 4.7 | 11% | 5.6 | · | 0.7 | ·
Cc1ccc(Nc2ccc([N+](=O)[O-])nc2[N+](=O)[O-])cc1 | -2.6 | 0.8 | 4% | 9.9 | · | 0.65 | ·
COc1ccc(CCNC(=O)CSc2nnc(-c3cccc(C)c3)o2)cc1OC | 0.9 | 4.6 | 0% | -1.1 | · | 0.74 | ·
CCCCCCCCc1nnc(NC(=O)c2ccco2)s1 | 0.9 | -2.7 | 8% | 1.3 | -11 | 0.67 | i
Cc1ccc2nc(-c3ccccc3)c(CN3CCN(c4ccccc4F)CC3)n2c1 | -3.0 | -0.6 | -5% | 1.6 | · | 0.75 | ·
CN1C(C)(C)CC(=NOC(=O)c2ccccc2)CC1(C)C | 3.3 | -1.1 | -9% | 0.8 | · | 0.72 | ·
COc1ccc(C2=NN(CCC(=O)NC3CCC(C)CC3)C(=O)CC2)cc1 (stereo not given) | -2.2 | -0.6 | · | 0.1 | -1.4 | 0.69 | i
OC(COc1ccccc1)CN1CCCCCC1 (stereo not given) | ? | 0.5 | 13% | 5.0 | 0.4 | 0.69 | i
O=C(OCC(=O)N1CCCc2ccccc21)c1ccc(F)c(S(=O)(=O)N2CCOCC2)c1 | 1.5 | -2.0 | -1% | 0.2 | 1.5 | 0.66 | i
CC(=O)[C@@]1(O)CCC2C3CC[C@H]4C[C@@H](O)CC[C@]4(C)C3CC[C@@]21C (stereo not given in full) | · | 1.7 | -5% | 1.7 | -2.1 | 0.67 | i
C=CCNC(=O)c1onc(CSc2cccc(OCC)c2)c1C(=O)O | 0.4 | -3.1 | -3% | 3.5 | 2.4 | 0.69 | i

Compound activity (PubChem BioAssay)

This is a subset. The share of hits here may be higher or lower than overall.
